# Rango complex inh: inhibitors of Rango-importin beta complex formation; Q14974; Rango CFP/YFP FRET sensor + importin beta, 45 min; Potency, µM (series often up to 92.2 µM), for the others: at the highest dose inhibition of complex formation; 340,000 compounds, 0.031% hits; AID 540263; active = rising FRET ratio curve, often small or poorly fitted; inconclusive = mostly compound fluorescence or quenching in the first reads; inactive = flat curves in all reads;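 also: potency is read from the fitted curve at half-maximal effect; 0% = DMSO wells and 100% = buffer wells lacking importin beta; nearly all actives have a fitted effect of over 15% in size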
#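 FRET biosensor (snurportin 1 IBB flanked by EYFP and cerulean), 50 nM, with compound 5 min, then 0.125 microM importin beta in PBS, 1 mM DTT, 0.02% Tween-20, 0.1% BSA. CFP/YFP ratio read after 45 min at room temperature; pre-read flags interference.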
# Rango dissoc inh: inhibition of RanGTP-driven Rango-importin beta dissociation; Biochemical FRET Rango-importin beta, RanGTP-induced dissociation; O95149+P62826; 340,000 compounds, 0.071% hits; Potency, µM (top dose mostly 46.1 µM), inactives show top-dose activity change, negative = inhibition; active means falling FRET ratio curve, often poorly fitted, with flat reads before Ran was added; inconclusive means other falling curves, or compound fluorescence or quenching; inactive means flat or rising ratio curve;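 also: potency is read from the fitted curve at half-maximal effect; % of control where 0% means no effect; nearly all actives have a fitted effect of over 45% in size; -100% = wells without RanGTP and RCC1; the record marks most hits as doubtful in a second field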
#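 Rango (0.1 uM)–importin beta (0.25 uM) complex; RanGTP-RCC1 trigger; 45 min RT; CFP/YFP FRET read.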
# miR-21 FLuc: miR-21 reporter, rising signal | 340,000 tested, under 10 active | HeLa miR-21 FLuc reporter, luciferase, 48 h | Potency, µM (highest dose often 38.3 µM), for inactives: at the highest dose reporter change, positive = more light | AID 2288; active = well fitted rising curve with a large enough effect; inconclusive = small, poorly fitted or top-dose-only effect; inactive = no such curve, though single readings can be large or run the other way;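 also: % of control where 0% means no effect; miR-21 action dims this reporter so a rising signal means less miR-21 action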
#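 Luminescence from a firefly luciferase reporter carrying a miR-21 binding site downstream, stably expressed under a CMV promoter in HeLa cells that make miR-21 endogenously, reports miRNA modulation after 48 h compound exposure up to approximately 40uM final.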
# GLA inh pH 4.5: alpha-galactosidase A (human) inhibition, pH 4.5 | 230,000 tested, under 10 active | activity change, negative = inhibition, % at 105 µM | AID 1467 | purified enzyme, 4-MU-alpha-Gal fluorescence, pH 4.5 | P06280; inconclusive = small, poorly fitted or top-dose-only inhibition, or a rising curve; inactive = flat fitted curve, though single readings scatter; no compound was filed as active;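 also: 0% = full activity with enzyme and -100% = basal without enzyme; dose as in the result columns while the protocol names 77 µM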
# Target sequence (P06280 whole entry, looked up): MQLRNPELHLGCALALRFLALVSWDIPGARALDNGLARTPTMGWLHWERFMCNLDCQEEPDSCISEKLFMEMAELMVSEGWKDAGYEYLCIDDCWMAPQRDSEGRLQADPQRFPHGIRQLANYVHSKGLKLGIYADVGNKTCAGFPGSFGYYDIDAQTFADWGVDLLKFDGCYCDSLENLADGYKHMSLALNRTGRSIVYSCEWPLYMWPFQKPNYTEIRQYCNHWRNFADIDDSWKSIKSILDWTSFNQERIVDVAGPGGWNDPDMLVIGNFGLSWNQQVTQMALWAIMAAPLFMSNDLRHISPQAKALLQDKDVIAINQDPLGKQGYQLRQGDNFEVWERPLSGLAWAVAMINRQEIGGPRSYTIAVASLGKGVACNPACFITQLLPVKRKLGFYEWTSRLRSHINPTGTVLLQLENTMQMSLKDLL
# * marks the source's active call; other numbers are inactive results; ? = inconclusive; / = not tested or not shown; & = joins results of further samples.
# The opening three entries (preview)
SMILES,Rango complex inh,Rango dissoc inh,miR-21 FLuc,GLA inh pH 4.5
c1ccc(-c2nc(CSc3nnc(-c4cccs4)o3)cs2)cc1,0.4%,-14%,-2%,-1
O=C(NCc1ccc(OC(F)(F)F)cc1)C1CC(c2ccccc2C(F)(F)F)=NO1 (stereo not given),1.0%,3%,1%,-17
COC(=O)c1[nH]c2cccc(Cl)c2c1NC(=O)CN(C)C1CCCCC1,-1.1%,-6%,3%,-10

# Main list (from the top)
SMILES,Rango complex inh,Rango dissoc inh,miR-21 FLuc,GLA inh pH 4.5
c1ccc(-c2nc(CSc3nnc(-c4cccs4)o3)cs2)cc1,0.4%,-14%,-2%,-1
O=C(NCc1ccc(OC(F)(F)F)cc1)C1CC(c2ccccc2C(F)(F)F)=NO1 (stereo not given),1.0%,3%,1%,-17
COC(=O)c1[nH]c2cccc(Cl)c2c1NC(=O)CN(C)C1CCCCC1,-1.1%,-6%,3%,-10
Cc1ccc(-n2c(COc3c(C)cccc3C)nnc2SCC(=O)Nc2nccs2)cc1,-3.3%,-11%,0%,7
Cc1ccccc1S(=O)(=O)c1c(C)cc(C)n(CC(C)C)c1=O,-3.6%,-9%,15%,-3
CCCCNc1c([N+](=O)[O-])cc(C)cc1[N+](=O)[O-],4.5%,-1%,-2%,-2
O=C(NCCn1cccn1)C1CCC(=O)N(CCc2ccccc2)C1 (stereo not given),-3.1%,-7%,-5%,/
O=C(COC(=O)c1cc(=O)[nH]c(=O)[nH]1)Nc1cccc(S(=O)(=O)N2CCOCC2)c1,-2.7%,4%,0%,-1
CCOc1ccc(S(=O)(=O)NCc2ccncc2)cc1NC(=O)c1ccccc1,2.5%,4%,/,/
Cc1cccc(NC(=S)N2CCC(NC(=O)C3CCCCC3)CC2)c1,3.8%,-4%,5%,/
C=C(C)CN=CC1(C)CCC(C)=CO1 (stereo not given),4.4%,-16%,/,/
CSc1cccc(NC(=S)N(Cc2ccc(C)cc2)Cc2ccccn2)c1,9.1%,-20%,1%,?
Cc1onc(-c2ccccc2Cl)c1C(=O)NCCCc1ccccc1,0.3%,2%,-10%,/
CCCOc1ccc(CNC(=O)Cn2c(=O)oc3ccccc32)cc1,1.6%,-9%,-1%&0%,-5
COc1ccccc1N1CCN(C(=O)c2c(C)cc(=O)oc2C)CC1,-0.3%,9%,-5%,-5
N#CCCn1c(SCC(=O)c2c[nH]c3ccccc23)nc2ccccc21,2.6%,-1%,-9%,-3
CCOC(=O)c1cnc2nc(NCc3ccc(OC)c(OC)c3)[nH]n2c1=O,-1.3%,1%,15%,-14
Oc1ccc(Cl)cc1C1=NCCNC(C(F)(F)C(F)F)=C1,1.2%,0%,14%,-6
O=C(CCCCCN1C(=O)CCC1=O)NCc1ccccc1,1.9%,2%,-3%,-15
CC1=C(c2ccccc2)C(O)(c2ccccc2)C(C)C1=O (stereo not given),0.9%,-18%,/,/
CC(C)CN1C(=O)C(=O)N(CC(=O)NC(C)CCc2ccccc2)C1=O (stereo not given),0.9%,-1%,/,/
O=C(CCS(=O)(=O)c1ccc2c(c1)NC(=O)CS2)NCCc1ccccc1,-0.4%,-7%,-3%,/
O=C(C[n+]1cc2ccccc2c2ccccc21)c1ccccc1,?,-8%,18%,-14
C/C(=N/N1CCN(Cc2cccc3ccccc23)CC1)c1cccnc1,4.3%,10%,4%,3
CCOc1ccc(NC(=O)CSC(N)=O)cc1,3.5%,2%,1%,-2

# Arranged by molecular weight (largest number first): part of the list above.
SMILES,Rango complex inh,Rango dissoc inh,miR-21 FLuc,GLA inh pH 4.5
c1ccc(-c2nc(CSc3nnc(-c4cccs4)o3)cs2)cc1,0.4%,-14%,-2%,-1
Cc1onc(-c2ccccc2Cl)c1C(=O)NCCCc1ccccc1,0.3%,2%,-10%,/
C/C(=N/N1CCN(Cc2cccc3ccccc23)CC1)c1cccnc1,4.3%,10%,4%,3

# Following part.
SMILES,Rango complex inh,Rango dissoc inh,miR-21 FLuc,GLA inh pH 4.5
Cc1ccc(C(=O)c2cncc(Br)c2)cc1,0.9%,1%,-5%,-2
CCOC(=O)C1=C(CNCc2ccccc2Cl)NC(=O)NC1c1ccc2c(c1)OCO2 (stereo not given),-5.8%,5%,-10%,-3
COC(=O)CSC(C)C(=O)Nc1nnc(C(C)C)s1 (stereo not given),-1.8%,-1%,-3%,8
Cc1ccc(C(=O)NC2CCCCCC2)cc1N1CCCC1=O,2.8%,-6%,-27%,-2
CCOC(=O)c1cc(NC(=O)c2cccs2)ccc1N1CCOCC1,0.5%,17%,5%,5
Cc1[nH]ncc1-c1nc2ccccc2[nH]1,?,-28%,-9%,/
Cc1cc(C)c(S(=O)(=O)N2CCN(C(=O)c3cc4ccccc4oc3=O)CC2)c(C)c1,-0.3%,6%,/,/
COc1ccc(NC(=O)CSc2nnnn2C2CCCCC2)cc1,-2.3%,-11%,0%,/
CCN1C[C@@H]2[C@@H]3C(=O)N(C)C(=O)[C@@H]3[C@](C)(C1=O)N2C(=O)c1ccc(Cl)cc1,0.3%,9%,/,/
COc1cccc(CN(C)C(=O)c2cc(S(=O)(=O)N3CCCC3)ccc2C)c1OC,0.1%,0%,/,/
COCCNC(=O)c1cc2c3ccccc3n(C)c2s1,5.5%,-6%,-12%,-6
CCn1c(=O)cc(SCC(=O)N2CCN(c3ccccc3OC)CC2)c2ccccc21,0.3%,8%,4%,-2
CCN(CC)c1ccc(-c2n[nH]c(=S)n2-c2ccccc2)cc1,1.0%,14%,16%,2
COCCNC(=O)c1ccc2c(c1)ncn2-c1ccc(C)c(Cl)c1,3.0%,-29%,-7%,/
COc1ccc(NC(=O)c2ccco2)cc1NC(=O)c1ccc(C)cc1,2.5%,-1%,0%,-10
CC(=O)N1c2ccc(S(=O)(=O)N3CCC(C(=O)NC4CCC(C)CC4)CC3)cc2CC1C (stereo not given),-2.8%,1%,-5%,/
Cc1ccc(CN(C(=O)CNC(=O)c2cccs2)C(C(=O)NCC2CCCO2)c2ccccc2)cc1 (stereo not given),5.0%,3%,17%,-6
FC(F)Sc1ccc(NC(=S)NCC2CCCCC2)cc1,-2.2%,0%,25%,-3
CCOC(=O)NNC(=O)c1[nH]c2ccc(Br)cc2c1-c1ccccc1,4.9%,-18%,17%,/
CC(/C=N/NC(=O)c1cc(-c2cccn2C)n[nH]1)=C\c1ccccc1,?,-10%,13%,7
COc1ccc(Cl)cc1NC(=O)COC(=O)C1CC1,4.5%,-7%,/,/
CCn1cnc2c1c(=O)n(CC(=O)NCc1ccccc1)c(=O)n2Cc1ccccc1,-1.0%,15%,-1%,-3
CC(C)[C@H](NC(=O)c1ccco1)C(=O)OCC(=O)Nc1ccccc1OC(F)F,-3.0%,-2%,-1%,3
CNc1nc(C)cc(C)c1S(=O)(=O)c1ccc(Cl)cc1,-0.4%,2%,7%,-5
COc1ccc(OC)c(CC(NC(C)=O)C(=O)NC2CCN(C(=O)c3cccc(C)c3)CC2)c1 (stereo not given),4.9%,-2%,2%,/
# Next entries
SMILES,Rango complex inh,Rango dissoc inh,miR-21 FLuc,GLA inh pH 4.5
COc1cc(CNc2cccc(F)c2)cc(Br)c1O,0.9%,-12%,-7%,0
COc1ccc(CN(Cc2nc3ccccc3c(=O)[nH]2)C(=O)NC2CCCCC2)cc1,-1.2%,11%,-9%,6
CCOC(=O)N1CCN(C(=O)CCc2ccc(S(=O)(=O)NCC(C)C)cc2)CC1,1.7%,-21%,/,/
O=C(CN1CCN(C(=O)N2CCOCC2)CC1)Nc1ccc(Br)cc1,3.7%,12%,4%,-4
O=C(COc1ccc(Cl)cc1Br)N1CCN(S(=O)(=O)c2ccccc2)CC1,0.5%,2%,10%,/
COc1ccc(/C=C2/C(=O)N(c3nc4ccccc4s3)N=C2CSc2ccc(Cl)cc2)cc1,0.2%,-1%,-9%,0
COc1ccc(CCN(C)C(=O)CSc2nnc(C3CC3)n2N)cc1OC,0.8%,3%,/,/
CSc1nccc(Oc2ccccc2Cl)n1,-0.4%,-3%,/,/
Cc1cc(C(=O)N2CCN(c3ccccc3)CC2)c(C)o1,3.0%,-18%,-16%,-3
CCOC(=O)c1c(C)[nH]c(C(=O)COc2ccc3c(c2)OCO3)c1C,0.6%,5%,-35%,-3
O=C(N/N=C/c1ccccn1)c1ccc(Br)cc1,0.5%,44%,-21%,5
CC(C)C(NC=C1C(=O)OC(C)(C)OC1=O)C(=O)O (stereo not given),-1.2%,-7%,2%,3
CCOc1ccc(/C=C/C2=Cc3c(sc(NC(=O)CSc4n[nH]c(N)n4)c3C#N)C(C)(C)C2)cc1,?,?,-7%,-27
Cc1ccc(CNc2ccc(N3CCOCC3)cc2)s1,0.4%,1%,-56%,5
CCCNC(C)C(=O)Nc1ccccc1C (stereo not given),4.2%,0%,-3%,-6&5&4
COc1ccc(CSCC(=O)Nc2ccccc2)cc1[N+](=O)[O-],-0.5%,-1%,-3%,/
Cc1ccc(S(=O)(=O)N(C)C)cc1NC(=O)COC(=O)c1ccc2ccccc2n1,4.5%,0%,/,/
Cn1c(-c2cc3ccc(OC(=O)C(C)(C)C)cc3oc2=O)nc2ccccc21,?,?,-60%,30
CC(C)(C)C(=O)N1CCN(C(c2ccccc2)c2ccccc2)CC1,-3.6%,-10%,0%,/
Cc1nc(CCNC(=O)CC2C(=O)NCCN2CC(C)(C)C)nc2c1CCC2 (stereo not given),?,1%,/,/
CCCOc1ccc(N2C(=O)CC(NCc3ccc(S(N)(=O)=O)cc3)C2=O)cc1 (stereo not given),3.5%,-3%,-1%,0
C=C1c2cc(C)c(C)cc2NC(=O)N1c1ccccc1,-1.8%,8%,-3%,0
COC(=O)C1C2C=CC(C3CC23)C1C(=O)OCC(=O)c1ccccc1 (stereo not given),6.9%,-2%,-8%,9
CC(=O)Oc1ccc(Cl)cc1/C=C/c1cc(OC(C)=O)c2ccccc2n1,/,/,-15%,-7
COCCN(C(=O)CNC(=O)c1ccco1)C(C(=O)NC1CCCC1)c1ccccc1 (stereo not given),1.2%,-5%,0%,/
# Carrying on:
SMILES,Rango complex inh,Rango dissoc inh,miR-21 FLuc,GLA inh pH 4.5
C/C(=C\c1cc2ccccc2o1)C1Nc2cccc3cccc(c23)N1,0.3%,0%,/,/
C#CCNC(=O)C1CCN(c2ccc(S(=O)(=O)N3CCOCC3)cc2Cl)CC1,-1.3%,-15%,2%,-16
Cc1ccc(N2C(=O)CSC2c2ccccn2)cc1Cl (stereo not given),5.2%,-9%,-18%,-3
COc1ccc(CCN(C)C(=O)c2cnc(C)cn2)cc1OC,11%,-16%,-7%,/
Cc1cc(S(=O)(=O)N2CCCC2)ccc1OCC(=O)N1CCC(C(N)=O)CC1,?,14%,2%,5
Cc1cccc(-c2noc(CCCOc3ccc(Cl)cc3Cl)n2)c1,3.1%,-5%,-1%,1
Cn1c(=O)n(CCCO)c(=O)c2c1nc1n2CCCN1Cc1ccccc1,-0.2%,10%,-1%,/
Cc1cc(C(=O)OCC(=O)NCCc2ccc(S(N)(=O)=O)cc2)c2ccccc2n1,-2.0%,14%,/,/
CCOc1cccc(C(=O)Nc2ccc3c(c2)OCCO3)c1,-0.1%,-2%,-13%,/
CC(NC(=O)COC(=O)Cc1ccc(-c2ccccc2)cc1)c1ccccc1 (stereo not given),4.0%,40%,-13%,-2
CC(Sc1nc2cc([N+](=O)[O-])ccc2n1-c1cccc(C(F)(F)F)c1)C(=O)NC(N)=O (stereo not given),-0.3%,33%,-2%,7
CC(CCc1ccc(O)cc1)NCc1ccc(Cl)cc1Cl (stereo not given),-0.3%,-2%,6%,/
C1=C(c2ccco2)N2CCN=C2S1,5.4%,1%,-1%,/
CCN(CC)S(=O)(=O)c1ccc(NC2c3ccccc3C(=O)N2CCN2CCOCC2)cc1 (stereo not given),-2.2%,-2%,-2%,7
COC(=O)C1=C(O)CSC1=Nc1ccc(C)cc1,-0.7%,-3%,-9%,7
CCc1ccc(CN2CCSCC2)cc1,-3.5%,-17%,-2%,/
O=C1N(Cc2ccccc2F)c2ccccc2C12OCCCO2,-3.8%,29%,-17%,11
CCOC(=O)C1=C(COC(=O)COc2ccc(C(=O)CC)cc2)NC(=O)NC1C (stereo not given),-0.9%,2%,/,/
Cn1c(CC(=O)Nc2ccccc2F)nnc1SCC(=O)Nc1nncs1,-1.1%,0%,0%,/
O=C(COC(=O)COc1ccc(Cl)cc1)Nc1ccc(F)c([N+](=O)[O-])c1,-0.6%,-10%,8%,-2

# Not all compounds are listed. The share of hits here may be higher or lower than overall.
